# Compound activity deposited in PubChem by National Center for Advancing Translational Sciences (NCATS).
# VDR inhibitor: vitamin D3 receptor (human) inhibition; AID 504847; P11473; Potency, µM, for inactives: max response, negative = inhibition, usual class: inhibitors; VDR-SRC2-3 peptide fluorescence polarization, 2 h; 0.93% of 400,000 active; active = well fitted inhibition curve with a large enough effect; inconclusive = small, poorly fitted or top-dose-only effect, or another doubt; inactive = no such curve, though single readings can be large or run the other way; also: series mostly up to about 120 µM
# Target sequence (P11473 whole entry, looked up): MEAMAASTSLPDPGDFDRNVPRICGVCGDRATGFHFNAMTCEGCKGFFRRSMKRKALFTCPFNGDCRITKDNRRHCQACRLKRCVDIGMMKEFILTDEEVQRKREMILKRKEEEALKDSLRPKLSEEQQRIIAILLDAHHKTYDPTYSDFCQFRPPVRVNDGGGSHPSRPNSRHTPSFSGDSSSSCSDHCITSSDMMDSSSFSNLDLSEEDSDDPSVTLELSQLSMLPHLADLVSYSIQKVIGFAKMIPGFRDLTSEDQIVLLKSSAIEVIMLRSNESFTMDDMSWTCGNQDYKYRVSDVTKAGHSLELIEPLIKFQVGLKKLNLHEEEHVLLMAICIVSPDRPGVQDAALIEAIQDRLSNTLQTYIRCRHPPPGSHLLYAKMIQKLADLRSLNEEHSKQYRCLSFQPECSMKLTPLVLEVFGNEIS
#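 Compounds are added to VDR with labelled SRC2-3 coactivator peptide and held 2 h at room temperature. Inhibition of the VDR–peptide interaction is then read as a change in fluorescence polarization.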
# Active calls of the source: *; ? = inconclusive; & = joins results of further samples. % is scaled to controls: 0 for no effect and ±100 for the full control effect; potency is read from the fitted curve at half-maximal effect. Some of the compounds tested, so the mix of outcomes need not match the whole.
# Start of the data: the first two compounds as a preview:
VDR inhibitor	structure
-8.9%	CCc1ccc(C(C)NC(=S)NC2CCCCC2)cc1 (centres undefined)
-31.5%	CCOC(=O)c1cc2c(=O)n3ccccc3nc2n(CC2CCCO2)c1=NC(C)=O (centres undefined)

# Main list, previewed entries included:
VDR inhibitor	structure
-8.9%	CCc1ccc(C(C)NC(=S)NC2CCCCC2)cc1 (centres undefined)
-31.5%	CCOC(=O)c1cc2c(=O)n3ccccc3nc2n(CC2CCCO2)c1=NC(C)=O (centres undefined)
15.8%	CC(C)C(c1nnnn1C1CCCC1)N1c2ccccc2CC1C (centres undefined)
2.8%	CCOC(=O)NCc1cc(-c2nn(C)c(=O)c3ccccc23)ccc1C
2.7%	CCOc1ccc(C2C(C(N)=O)=C(C)Nc3nc(-c4ccc(OC)cc4)nn32)cc1 (centres undefined)
10.8%	CN(C)C(=O)CSc1n[nH]c(=O)n1CCc1ccccc1
?	Cc1nn(-c2cccc(Cl)c2)c2c1C(c1ccncc1)C(C#N)=C(N)O2 (centres undefined)
-17.8%	O=c1c2ccccc2cnn1-c1ccc(Cl)nn1
0.1%	CC(C)c1ccc(CN(Cc2ccco2)c2cnc(S(C)(=O)=O)nc2C(=O)Nc2ccc(F)cc2)cc1
-7.0%	Clc1ccc(Cl)c(Oc2ccc(Oc3nc(Cl)ccc3Cl)cc2)n1
-9.8%	N#CCCN(CCC#N)C(=O)C1c2ccccc2Oc2ccccc21
6.3%	O=c1[nH]cnc2c1c(-c1ccccc1)cn2-c1cccc(Cl)c1
0.0%	Cc1ccc(C(=O)Nc2ccccc2-c2ccccc2)cc1[N+](=O)[O-]
4.7%	CS(=O)(=O)Nc1cccc(C(=O)OCCCOc2ccc(F)cc2)c1
-12.6%	COc1ccc(OC)c(/C=N/NC(=O)c2cc3c(OC)c(OC)ccc3[nH]2)c1
-22.4%	CCOC(=O)[C@H]1[C@H]2COc3ccc(OC)cc3[C@@H]2N2C(=O)c3cc(OC)c(OC)cc3NC(=O)[C@@]12C
26.0%	CSCCC(NS(=O)(=O)c1ccccc1)C(=O)OC(C)C(=O)Nc1ccc(Cl)cn1 (centres undefined)
-15.5%	CCOC(=O)c1cccc(NC(=O)Cn2nc(C)n3cccc3c2=O)c1
-18.4%	O=C(O)c1ccc(N2C(=O)c3cccc(Oc4ccc(Cl)cc4)c3C2=O)cc1
17.3%	Cc1ccccc1NC(=O)NCCc1ccc(Cl)cc1
-11.2%	CCc1ccc(NC(=O)CNC(=O)Cn2c(C)cc3ccccc3c2=O)cc1
-24.4%	O=C(c1ccc(Cl)cc1)c1oc2ccccc2c1CS(=O)c1ccccc1 (centres undefined)
3.7%	CCN(CC)CCCn1c(C)cc2c(c1=O)C(c1cccc(Cl)c1)C(C#N)=C(N)O2 (centres undefined)
-5.5%	Cc1ccn2cc(CCNS(=O)(=O)c3ccc([N+](=O)[O-])cc3)nc2c1
6.3%	CCOC(=O)C1CCCN(C(=O)c2ccc([N+](=O)[O-])cc2)C1 (centres undefined)
-14.5%	O=C(CSc1nc2ccc(Cl)cc2[nH]1)c1cccs1
-9.1%	CCCC(=O)Nc1ccccc1NC(=O)CN(C)S(=O)(=O)c1ccc(C)cc1
2.4%	CC(=O)OCCn1c(C)[n+](CCOC(C)=O)c2cc(Cl)c(Cl)cc21
?	CCCN(CCC)C(=O)CC(c1ccc(F)cc1)c1ccco1 (centres undefined)
-14.5%	Cc1ccc(S(=O)(=O)NC(=O)Nc2ccc(F)cc2)cc1
-5.9%	CN(C)/C=C/C(=O)Oc1ccc(Cl)cc1Cl
4.7%	Fc1ccc(-[n+]2nc(Nc3ccccc3)sc2-c2ccc(OCc3ccccc3)cc2)cc1
2.9%	Cc1ccc(NC(=O)c2c(C)oc3ncn(C)c(=O)c23)cc1F
10.3%	O=C(CN1CCN(S(=O)(=O)c2ccccc2)CC1)NC1CC1
-4.9%	COc1ccc(-c2cc(C(=O)NC3=NCCS3)c3ccccc3n2)cc1OC
-18.2%	N/C(=N\OC(=O)c1ccccc1Br)c1ccc([N+](=O)[O-])cc1
3.3%	CC(=O)c1ccc(N2CCN(Cc3cc(=O)n4c(-c5ccccc5)csc4n3)CC2)cc1
?	CS(=O)(=O)Nc1cccc(-c2cncnc2NCc2ccccc2)c1
-6.8%	Cc1ccsc1-c1nc(CSCC(=O)N2CCN(c3ccccc3)CC2)c(C)o1
-10.3%	Cc1cccc(OCCC(=O)Nc2c(C)n(C)n(-c3ccccc3)c2=O)c1
-7.9%	Cc1ccc(-n2c(SCC(=O)Nc3ccc4c(c3)OCO4)nnc2-c2cccs2)cc1
8.1%	Cc1ccc(OCCn2cc(/C=C/C(=O)O)c3ccccc32)cc1
9.6%	COc1ccc(NC(=O)c2ccco2)cc1NC(=O)c1cccc(OC(C)C)c1
-1.5%	O=C(NC1CCCCCCC1)c1ccc(CNc2c(N3CCOCC3)c(=O)c2=O)cc1
-8.2%	Cc1nc(NC(=O)c2ccccc2)sc1C1(C)CC(c2c(Cl)cccc2Cl)=NO1 (centres undefined)
-7.5%	COc1ccccc1NC(=O)CN(c1ccc([N+](=O)[O-])cc1)S(=O)(=O)c1ccccc1
-7.3%&-11.1%	COc1ccc(NC(=O)c2ccc(CNc3c(NC4CCCCC4)c(=O)c3=O)cc2)c(OC)c1
1.5%	Cc1ccc(SCC(=O)OCC(=O)NCc2cccs2)cc1
-1.4%	COc1ccc(S(=O)(=O)N2CCC(C(=O)N3CCCCC3)CC2)cc1OC
1.5%	COc1ccc(C(=O)n2nc(C)c(Br)c2C)cc1

# Some of the entries so far, field by field.
structure: Cc1ccc(S(=O)(=O)NC(=O)Nc2ccc(F)cc2)cc1
  VDR inhibitor: -14.5%
structure: CCN(CC)CCCn1c(C)cc2c(c1=O)C(c1cccc(Cl)c1)C(C#N)=C(N)O2 (centres undefined)
  VDR inhibitor: 3.7%
structure: Clc1ccc(Cl)c(Oc2ccc(Oc3nc(Cl)ccc3Cl)cc2)n1
  VDR inhibitor: -7.0%
structure: COc1ccc(S(=O)(=O)N2CCC(C(=O)N3CCCCC3)CC2)cc1OC
  VDR inhibitor: -1.4%

# Part of the list above, as labelled records.
Cc1ccc(NC(=O)c2c(C)oc3ncn(C)c(=O)c23)cc1F
  VDR inhibitor: 2.9%
O=C(CN1CCN(S(=O)(=O)c2ccccc2)CC1)NC1CC1
  VDR inhibitor: 10.3%
COc1ccc(-c2cc(C(=O)NC3=NCCS3)c3ccccc3n2)cc1OC
  VDR inhibitor: -4.9%

# (next part)
VDR inhibitor	structure
0.1%	COc1ccc(NC(=O)/C(C#N)=C/c2ccc(OCc3cc(=O)n4nc(C)sc4n3)cc2)cc1
-17.2%	COc1cccc(-c2nc(CSCC(=O)NCC3CCCO3)c(C)o2)c1 (centres undefined)
-3.7%	CCCCCOC(=O)C1[C@H]2C(=O)N(c3ccccc3CC)C[C@]23C=C[C@H]1O3 (some centres undefined)
1.5%	Cc1cc2ccccc2cc1C(=O)c1ccccc1
-1.2%	O=C1c2cccc([N+](=O)[O-])c2C(=O)N1CCO
8.0%	CCc1cccc(CC)c1NC(=O)COC(=O)c1cccc(-c2ccc(OC(C)=O)cc2)c1
-12.9%	COc1ccccc1NC(=O)Nc1nc(CC(=O)NCc2ccccn2)cs1
-3.1%	CCOc1ccc(C(=O)CCC(=O)N2CCC(C(=O)OC)CC2)cc1
-9.4%	Cc1ccc(C(=O)NCCSc2c[nH]c3ccccc23)cc1C
-3.2%	COc1cccc(-c2nc(CS(=O)(=O)CC(=O)NCc3cccc(Cl)c3)c(C)o2)c1
14.3%	COc1cc(C(=O)O/N=C(\N)c2ccncc2)cc(OC)c1OC
-0.5%	COc1cc(/C=C/C(=O)OCC(=O)NCCCc2ccccc2)cc(OC)c1OC
-12.0%	CCN(C(=O)C1CCCN(c2nc(-c3ccc(OC)cc3)no2)C1)c1ccc(OC)cc1 (centres undefined)
9.8%	O=C(O)c1cccc2c1C(=O)N(c1ccccc1)C2
-14.4%	COc1ccc(N2C(=O)CC(N(CCc3ccccc3)C(=O)c3ccccc3)C2=O)cc1 (centres undefined)
3.2%	O=S(=O)(N1CCOCC1)N1CCN(c2ccccc2F)CC1
-12.2%	C[C@H](CO)N1C[C@H](C)[C@@H](CN(C)Cc2ccc(Cl)c(Cl)c2)Oc2c(NC(=O)CCC(F)(F)F)cccc2C1=O
-7.5%	CCC(C)[C@H](NC(=O)Nc1cccc(Cl)c1)C(=O)O (some centres undefined)
4.3%	Cc1nn(Cc2ccc(C(=O)N3CCOCC3)o2)c(C)c1Br
4.0%	CCn1c(N2CCN(C(c3ccccc3)c3ccccc3)CC2)nc2c1c(=O)[nH]c(=O)n2C
6.2%	Cc1cccc(C2c3[nH]c4ccccc4c3CCN2C(=O)Cc2n[nH]c(C)n2)n1 (centres undefined)
18.6%	COc1ccc(-n2nnnc2C2CCN(S(=O)(=O)c3cc(Cl)ccc3OC)CC2)cc1
-2.2%	O=C(NCc1ccncc1)c1cccc(S(=O)(=O)N2CCc3ccccc32)c1
22.4%	CCOC(=O)c1cc(S(=O)(=O)NCC2CCN(Cc3cccc(C)c3)CC2)cn1C
3.7%	Cc1ccsc1/C=N/N1CCN(c2ccccn2)CC1
8.8%	CC(=O)Nc1ccccc1C(=O)C(=O)Nc1ccc(F)c(Cl)c1
1.3%	O=C(c1cc(-c2ccc(Cl)cc2)on1)N1CCOCC1
-2.2%	CCC(CC)NC(=O)c1cccc([N+](=O)[O-])c1C
1.1%	COc1ccc2c(c1)[nH]c1c(=O)n(CCCn3ccnc3)cnc12
13.4%	CC(=O)c1cc(Cl)ccc1OCC(=O)Nc1cccc(S(=O)(=O)N2CCCC2)c1
25.9%	CNC(=O)C(=O)Nc1ccc(C)cc1C
14.7%	Cc1ccc(S(=O)(=O)CCN2CCC(O)(c3ccccc3)CC2)cc1
-6.3%	COc1ccccc1NC(=O)C1=C(C)Nc2nc(SCc3cccc(F)c3)nn2C1c1ccc(C(=O)O)cc1 (centres undefined)
-9.4%	NC(=O)C[C@@H]1N[C@]2(C(=O)Nc3ccccc32)[C@@H]2C(=O)N(c3cc(C(F)(F)F)ccc3Cl)C(=O)[C@H]12
-8.4%	Cc1ccc(-n2c(SCC(N)=O)nnc2-c2ccco2)cc1
9.5%	CCC(=O)Nc1cccc(-c2cn3c(C)csc3n2)c1
-3.6%	Cn1c(CCc2ccccc2)nnc1SCC(=O)N1CCOCC1
7.0%	COc1ccc(C(=O)CC(=O)C(=O)Nc2ccc(Cl)cc2)cc1
2.8%	c1ccc(NCCC2OCC3(CO2)COC(CCNc2ccccc2)OC3)cc1 (centres undefined)
-21.1%	COc1ccc(-c2sc3ccc(N4CCOCC4)cc3c2C#CC(C)(C)O)cc1
-1.1%	COCCN1C(=O)N[C@@H](c2ccccc2)[C@H](C(=O)OC)[C@H]1C
17.9%	O=C(CSc1nc2ccc(Cl)cc2[nH]1)Nc1ccc2c(c1)CCC2
-3.3%	COn1c(-c2ccccc2)nc2c1CCc1nonc1-2
7.6%	CCOC(=O)CNC(=O)CSc1nnc(-c2ccccc2OC)n1CC
15.9%	O=C(c1ccc(NC2=NC3CS(=O)(=O)CC3S2)cc1)N(CCO)Cc1ccccc1 (centres undefined)
-7.8%	O=[N+]([O-])c1ccc(C=Nc2cccc3ccccc23)s1
9.0%	COc1ccc(C)cc1S(=O)(=O)NC(C)c1cnn(-c2ccccn2)c1C (centres undefined)
-0.6%	COc1ccc(NC(=S)N2CCCC(CO)C2)c(OC)c1 (centres undefined)
15.7%	Cc1nc2ccccn2c1C(=O)CSc1ccccc1
0.4%	O=C(COc1ccc(Cl)cc1)Nc1ccc2c(c1)OCO2

# The listing continues.
VDR inhibitor	structure
2.6%	COc1ccc(-c2nnc(SCC(=O)Nc3ccc(F)cc3)s2)cc1
?	Cc1cc(C)cc(N(C(=O)CNC(=O)c2ccco2)C(C(=O)NC2CCCC2)c2ccncc2)c1 (centres undefined)
-3.6%	O=C(c1cc(COc2ccc(F)cc2Cl)on1)N1CCC(c2ccncc2)CC1
-3.6%	COc1ccccc1N1CCN(C(=O)C(CC(C)C)NC(=O)C2CCCCC2)CC1 (centres undefined)
-8.5%	CSc1ccc(S(=O)(=O)N2CCC(C(=O)NCc3cccnc3)CC2)cc1
1.9%	Cc1ccc(CSc2ncc(Cl)c(C(=O)Nc3sc4c(c3C(N)=O)CCCC4)n2)cc1
-13.4%	O=S(=O)(c1ccc(-c2csc(Nc3ccc(Br)cc3)n2)cc1)N1CCCC1
-3.1%	CCOc1ccc(C(C(=O)NC(C)(C)C)N(CCOC)C(=O)CCC(=O)Nc2ccccn2)cc1 (centres undefined)
-18.9%	O=C(Cc1csc(NC(=O)Nc2ccc(Cl)cc2)n1)NCc1ccccn1
14.6%	CS(=O)(=O)c1cnc(-c2ccccc2)nc1Sc1ccc(F)cc1
11.7%	CC(C)(C)OC(=O)N1CCC(c2c(C(=O)NCc3ccco3)cnn2-c2ccccc2)CC1
3.9%	Cc1ccc(CC2CC(=O)N(c3cc(C)ccc3C)C2=O)cc1 (centres undefined)
18.3%	CCN(C(=O)c1ccc(NC(=O)Cc2ccccc2)cc1)c1ccccc1
1.3%	O=S(=O)(c1ccc2ccccc2c1)N1CCNCC1
13.9%	CCOC(=O)Cc1csc(NC(=O)c2cccnc2)n1
20.1%	Cc1cc2oc(=O)cc(CSc3nnc(C)n3N)c2cc1C(C)C
0.8%	OCC1=CC[N+]2(Cc3ccccc3)CCC(O)[C@@H]12 (some centres undefined)
-15.5%	CCOc1ccc2ncc(S(=O)(=O)c3ccc(C)cc3)c(N3CCC4(CC3)OCCO4)c2c1
-3.7%	CCOC(=O)c1ccc(CN(Cc2ccc(Br)cc2)S(=O)(=O)c2cccc(C(F)(F)F)c2)cc1
9.6%	CCOC(=O)C1CCC(CN(Cc2ccc(OC)cc2)S(=O)(=O)c2ccc(C)cc2)CC1 (centres undefined)
